RE007 growth inh: qHTS Assay for Inhibitors of the HIV-1 protein Vpr; S. pombe RE007 Vpr strain, BacTiter-Glo ATP luminescence, 24 h; control for the full effect not named in the record; Potency, µM (series often up to 92.2 µM), inactives show at the top dose activity change, negative = less growth; hit rate 0.21% among 360,000; active = well fitted falling curve with a large enough effect; inconclusive = small, poorly fitted or top-dose-only effect; inactive = no such curve, though single readings can be large or run the other way;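 further: on the % scale 0 is the no-effect control and ±100 the full control effect; nearly all actives have a fitted effect of over 50% in size; the assay follows cell death caused by Vpr and the record does not say whether a fall means rescue or toxicity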
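Fission yeast RE007 carrying one integrated HIV-1 vpr copy, seeded at OD 0.01 in PMG+AL medium with 23 nL pinned compound. Grown 24 h at 30 degrees; viability read by BacTiter-Glo luminescence after 5 min.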
SARS PLP yeast: qHTS of Yeast-based Assay for SARS-CoV PLP. S. cerevisiae expressing SARS-CoV PLpro, growth rescue; control for the full effect not named in the record. Potency, µM (series often up to 32.9 µM), for the others: at the highest dose activity, positive = growth rescue. hit rate 0.19% among 330,000; active means well fitted rising curve with a large enough effect; inconclusive means small, poorly fitted or top-dose-only effect; inactive means no such curve, though single readings can be large or run the other way; further: 0% is about no effect; nearly all actives have a fitted effect of over 55% in size; growth read by luminescence after 48 h
StopGo reporter: High Throughput Screening for Foot and Mouth Disease Virus Antivirals; human cells with a luciferase reporter of 2A StopGo recoding; control for the full effect not named in the record; Potency, µM (series often up to 57.9 µM), without a hit: at the top dose signal change, negative = less light; hit rate 1.2% among 410,000; active = well fitted falling curve with a large enough effect; inconclusive = small, poorly fitted or top-dose-only effect; inactive = no such curve, though single readings can be large or run the other way; tested in HEK293T cells; further: on the % scale 0 is the no-effect control and ±100 the full control effect; nearly all actives have a fitted effect of over 45% in size; luciferase light after 4 h
Starred values were filed as active, the others as inactive; ? = inconclusive; & = joins results of further samples; [ ] = dose if it differs, or a comment. Potency means the concentration at half of the fitted maximal effect. An excerpt. The share of hits here may be higher or lower than overall.

SMILES	RE007 growth inh	SARS PLP yeast	StopGo reporter
CC1=CCC[C@H]2[C@H](C1)C(=O)C[C@@H](C)[C@]2(C)CC/C(=C/CO)CO	-6%	0%	-18%
CCOc1ccc(S(=O)(=O)N2CCN(C(=O)COc3ccc(Br)cc3)CC2)cc1	-3%	1%	?
Cc1ccc(NS(=O)(=O)c2cc(C(=O)N3CCN(CCO)CC3)ccc2C)cc1	13%	7%	18%
CCOC(=O)c1cc(-c2ccc(F)cc2)n(CC(=O)NC(C)CC)c1C (stereo not given)	2%	1%	0%
CC(=O)Nc1ccc(NC(=O)c2ccc(S(=O)(=O)N(C)c3ccccc3)cc2)cc1	4%	0%	?
O=C(COC(=O)c1ccc2ccccc2c1O)NCc1ccccc1	-10%	2%	17%
COC(=O)c1cc(Cl)cc2c(CCO)c[nH]c12	-2%	1%	10%
O=C(COC(=O)c1c(F)cccc1F)Nc1ccc(N2CCCCC2)cc1	-16%	-7%	13%
Cn1c(=O)n(Cc2ccccc2)c(=O)c2c1nc1n2CCN1Cc1ccco1	-13%	-5%	-30%
Cc1cc(NC(=S)N(Cc2ccc(Cl)cc2)Cc2ccc(C(=O)O)cc2)ccc1Cl	0%	-10%	-17%
CC(C)(NC(=O)c1ccccc1)c1nc2ccccc2s1	16%	-23%	26%
CC(=O)NC(=S)Nc1cccc2c(C)cc(C)nc12	5%	0%	4%
CC(C)Cc1nnc(NC(=O)c2ccc3c(c2)OCCO3)s1	0%	1%	16%
C#CCOc1ccc(CNC[C@H]2O[C@@H](n3cnc4c(N)ncnc43)[C@H](O)[C@@H]2O)cc1	-15%	-2%	-16%
O=C(Nc1ccc(-c2csc(Nc3ccc(Cl)cc3)n2)cc1)c1ccccc1	4%	5%	-10%
CN(CC(=O)Nc1ccc(S(=O)(=O)N2CCOCC2)cc1)Cc1ccc(F)cc1	2%	1%	22%
COc1ccc(C(=O)COC(=O)CNC(=O)c2ccc(C)s2)c(OC)c1	4%	1%	-13%
CC(=O)c1cc2c(cc1NC(=O)Cn1cnc3ccccc3c1=O)OCO2	11%	1%	-19%
CC(C)N(CCNCc1nnc(-c2ccccc2)o1)C(C)C	-9%	0%	-9%
COCCNC(=S)NC(=O)c1ccc(C(C)(C)C)cc1	-24%	0%	13%
O=C(COc1ccc(Cl)cc1)Nc1cccc(S(=O)(=O)NCc2ccco2)c1	4%	8%	53%[activator]
O=C(Nc1cc(C(F)(F)F)ccc1-n1cncn1)c1cn2ccccc2n1	12%	-11%	19%
CCC(CO)Oc1cc(NCc2ccc(Cl)cc2Cl)c2ncn(C(C)C)c2c1 (stereo not given)	6%	9%	-22%
CCCCN(CCCC)Cc1ccc(C(=O)NNC(=O)Nc2ccccc2)o1	-7%	-3%	-19%
CC(=O)c1ccc2noc(-c3ccc(C)cc3)c2c1	-15%	-4%	18%
COC(=O)[C@@]1(Cc2ccccc2)[C@H]2C(=O)N(Cc3ccccc3)C(=O)[C@H]2[C@H]2CN=C(SCc3ccccc3)N21	4%	-12%	0%
CCN(CC(=O)NC1CCS(=O)(=O)C1)C(=O)c1ccc(S(=O)(=O)N(CC)CC)cc1 (stereo not given)	-2%	2%	-12%
COc1ccc(Cl)cc1NC(=O)COC(=O)C1CC(=O)N(Cc2ccccc2)C1 (stereo not given)	19%	-2%	-4%
C[C@H](CO)N1C[C@H](C)[C@@H](CN(C)Cc2ccc3c(c2)OCO3)Oc2c(NC(=O)C3CCCCC3)cccc2C1=O	2%	-8%	10%
CCOc1ccc(Cn2nnc(-c3ccc(S(C)(=O)=O)cc3)n2)cc1OCC	-8%	3%	?
COC(=O)c1c(N2C(=O)Nc3ccccc3N2O)sc(C)c1C	9%	4%	5%
CN(CC(=O)Nc1cccc(F)c1)C(=O)CN1C(=O)NC2(CCCC2)C1=O	-3%	-9%	-18%
Cc1ccc(CNC(=O)CSc2nc3ccsc3c(=O)n2Cc2ccc(C(=O)O)cc2)cc1	18%	1%	-8%
COC(=O)[C@@]12CCCN1[C@H](c1ccc(-c3ccc(OC)cc3)cc1)[C@@H]1C(=O)N(C)C(=O)[C@@H]12	-1%	-15%	-25%
CC(C)N(CCn1c(SCC(=O)Nc2cccnc2Cl)nc2ccccc2c1=O)C(C)C	-5%	0%	-12%
CCOc1ccccc1/C=N/NC(=O)C[n+]1ccccc1	3%	-2%	1%
CCC1(C)NC(=O)N(CC(=O)N2CCC(Cc3ccccc3)CC2)C1=O (stereo not given)	-7%	-7%	-25%
NS(=O)(=O)c1ccc(N2N=C(c3ccccc3)CC2c2cccc(Cl)c2)cc1 (stereo not given)	10%	-4%	?
CCOC(=O)C1CCCN(C(=O)c2ccc(C(=O)c3ccccc3)cc2)C1 (stereo not given)	-13%	-1%	-12%
COc1ccc(CN(C)CC(=O)Nc2sc3c(c2C#N)CCC3)cc1OC	3%	-1%	-6%

Compound profiles (already shown).
Cc1ccc(CNC(=O)CSc2nc3ccsc3c(=O)n2Cc2ccc(C(=O)O)cc2)cc1 across the screens: RE007 growth inh: 18%; SARS PLP yeast: 1%; StopGo reporter: -8%
CN(CC(=O)Nc1cccc(F)c1)C(=O)CN1C(=O)NC2(CCCC2)C1=O across the screens: RE007 growth inh: -3%; SARS PLP yeast: -9%; StopGo reporter: -18%
COC(=O)c1c(N2C(=O)Nc3ccccc3N2O)sc(C)c1C across the screens: RE007 growth inh: 9%; SARS PLP yeast: 4%; StopGo reporter: 5%

Next section.
SMILES	RE007 growth inh	SARS PLP yeast	StopGo reporter
O=C(O)c1cccnc1Br	11%	1%	4%
Cc1ccc(NC(=O)c2cccc(C(F)(F)F)c2)cc1NC(=O)c1[nH]cnc1C(N)=O	-8%	4%	-5%
O=C(C[C@H]1C/C=C\C[C@@H](Cc2ccc(F)cc2)C(=O)OC[C@H]2CCCN2C1=O)NCCO	-4%	-13%	-17%
CCOC(=O)C1=CN(Cc2cccc(I)c2)S(=O)(=O)N(C)C1C (stereo not given)	-20%	-21%	-8%
Cc1ccc(S(=O)(=O)NC(=O)NC(=O)N(C)S(=O)(=O)c2ccc(C)cc2)cc1	7%	-4%	-6%
CC1CCCC(C)N1C(=O)CN1c2cccc3cccc(c23)S1(=O)=O (stereo not given)	2%	-5%	-18%
COc1ccc(Cl)cc1NC(=O)CN(C)C(=O)CCSc1ccc(C)cc1	-19%	-7%	-3%
Cc1ccc(N/N=C(\C#N)C(N)=S)cc1C	5%	-3%	0%
COc1ccc(C2=CC(=O)CC(C)(C)C2)cc1	-14%	3%	28%
CCCCN1C(=O)C(=O)c2cc(Cl)ccc21	30%	-23%	5%
COc1ccccc1NC(=O)COC(=O)c1[nH]c(=O)[nH]c(=O)c1N	-15%	0%	11%
CCCCN1CC(=O)N2[C@H]3c4cc(Cl)ccc4OC[C@@H]3[C@H](C(=O)OCC)[C@]2(C)C1=O	-1%	-5%	-13%
O=C(CN1C(=O)NC2(CCCCCC2)C1=O)NCCc1ccc(F)cc1	10%	5%	-9%
Cc1ccccc1C(=O)N1CCC(C(=O)OCc2nc(N)nc(Nc3ccccc3)n2)CC1	-5%	5%	-24%
Cc1noc(C)c1NC(=O)Nc1ccc2c(c1)C(=O)N([C@H](C)CO)C[C@H](C)[C@@H](CN(C)C(=O)NC(C)C)O2	0%	2%	-15%
CCC(O)(C(=O)Nc1ccccc1C(F)(F)F)c1ccccc1OC (stereo not given)	-5%	-1%	-8%
COc1ccc([C@H]2CC(=O)C=C(c3cccc(CO)c3)C2)cc1	7%	3%	-5%
CC(=O)Nc1cccc(C(=O)Nc2cccc(S(=O)(=O)NCc3ccco3)c2)c1	-2%	4%	20%
O=C(CCNC(=O)c1ccc(Cl)cc1)NN1C(=O)NC2(CCCCC2)C1=O	-14%	0%	-15%
CCN1CCCC1CNC(=O)C(=O)NC (stereo not given)	-11%	-7%	1%
CC(C)c1ccc(NC(=O)c2cccc(Br)c2)cc1	2%	-8%	53%[activator]
CC1CCCC(C)N1C(=O)COC(=O)COc1ccc(C#N)cc1 (stereo not given)	1%	4%	-21%
CC(=O)NC12CC3CC(C1)CC(C(=O)NCC(=O)Nc1c(C)cc(C)cc1C)(C3)C2	-10%	4%	-17%
CCCC(C)NC(=O)Cc1ccc(S(=O)(=O)N2CCOCC2)s1 (stereo not given)	-14%	0%	-9%
COc1ccc(NC(=O)CN2C(=O)NC(C)(C3CC3)C2=O)cc1S(=O)(=O)N1CCOCC1 (stereo not given)	-3%	-6%	-6%
COc1ccc(CN2C(=O)C(Cc3ccccc3)Nc3ncnc(N4CCN(c5ccccc5)CC4)c32)cc1 (stereo not given)	1%	-1%	0%
COc1cc(/C=C2\C(=N)N3N=CSC3=NC2=O)cc(Br)c1OC(=O)c1ccco1	0%	-1%	-14%
C/C=C(\NC(C)=O)c1ccccc1	5%	5%	-6%
Cc1noc(C)c1NC(=O)N(C)C[C@H]1Oc2ccc(NC(=O)c3ccncc3)cc2C(=O)N([C@H](C)CO)C[C@@H]1C	4%	2%	-18%
COc1ccc(CNS(=O)(=O)c2ccc(F)c(C(=O)Nc3ccc(OC)cc3)c2)cc1	0%	2%	7%
CCOC(=O)c1ccccc1NC(=S)N1CCN(C2CCCCC2)CC1	2%	-4%	-9%
CC(=NNC(=O)c1cccs1)c1ccc2c(c1)OCCO2	-7%	-6%	60%[activator]
O=C(OCc1c(-c2ccccc2)ncc2ccccc12)c1ccc(F)cc1	-1%	1%	?
Cc1ccc(C(=O)CCC(=O)Nc2ccc(C)cn2)cc1	5%	-2%	55%[activator]
CCN1CCSc2ccc(C(=O)Nc3ccc(NC(C)=O)cc3)cc21	-4%	0%	6%
CCC1CCCCN1C(=O)COc1ccc(S(=O)(=O)N2CCOCC2)cc1Cl (stereo not given)	4%	-3%	-20%
Cc1c(C(=O)OC(C)C(=O)N(C)Cc2ccccc2)oc2ccccc12 (stereo not given)	3%	-2%	-16%
COc1ccccc1NC(=O)N1CCC(c2nc3ccccc3o2)CC1	9%	-2%	18%
Cc1ccc(C2=NN(C(=O)CCC(=O)O)C(c3cn(-c4ccccc4)nc3-c3ccc(C)cc3)C2)cc1 (stereo not given)	9%	-1%	-24%
O=C(COC(=O)c1ccccc1Cl)NCCC1=CCCCC1	6%	-12%	90%[activator]
NC(=O)C1CN(C(=O)c2cccc(S(=O)(=O)N3CCc4ccccc43)c2)c2ccccc2O1 (stereo not given)	4%	-7%	-10%
CCCSc1ccc([C@H]2N[C@@](CC(C)C)(C(=O)OC)[C@H]3C(=O)N(CC)C(=O)[C@@H]23)cc1	10%	-6%	-22%
Cc1ccn2c(NCc3ccccc3)c(-c3cccc(SC4CCCCC4)c3)nc2c1	-17%&-27%	14%	?
CC(C)(C)[C@H]1COC(=O)[C@H](NC(=O)OCC2c3ccccc3-c3ccccc32)C/C=C\C[C@@H](CC(=O)N[C@H](CO)Cc2ccccc2)C(=O)N1	-3%	-44%	-14%
CC(C)(C)OC(=O)C[C@@H]1C/C=C\C[C@@H](CC(=O)NCCO)C(=O)N[C@H](C(C)(C)C)COC1=O	-2%	0%	-15%
O=C(NCc1cccc(F)c1)c1cccc2c1C(=O)c1ccc(Cl)cc1S2(=O)=O	-4%	-2%	4%
C[C@H](CO)N1C[C@H](C)[C@@H](CN(C)S(C)(=O)=O)Oc2ccc(NC(=O)Nc3ccc(C(F)(F)F)cc3)cc2C1=O	-3%	-1%	0%
CCN(C[C@H]1N[C@@](CC)(C(=O)OC)[C@H]2C(=O)N(Cc3ccccc3)C(=O)[C@@H]12)C(=O)c1ccc(C)cc1	-11%	-1%	?
Cc1cc(Br)cc(C)c1OCC(=O)NNC(=O)CCC(=O)NCc1ccccc1	1%	1%	5%
CC1=CC(=O)C=C/C1=C(/c1ccc(O)cc1C)c1ccccc1S(=O)(=O)O	2%	-10%	-9%
(next part)
SMILES	RE007 growth inh	SARS PLP yeast	StopGo reporter
O=C(NCc1ccccc1)C1c2ccccc2Oc2ccccc21	-18%	-7%	11%
COc1ccc(/C(=N\Nc2ccccc2C(=O)O)c2ccccc2)cc1	?	-4%	9%
CCSc1nnc2ccc(-c3cccs3)nn12	5%	1%	-3%
COc1ccccc1NS(=O)(=O)c1ccc(C)c(NC(=O)c2c(C)noc2C)c1	-5%	6%	4%
Cc1ccccc1/C=C/C(=O)c1ccc([N+](=O)[O-])o1	8.9µM*	-16%	22µM*
CNS(=O)(=O)c1ccc(C(=O)NCC(=O)NCCC(c2ccccc2)c2ccccc2)cc1	-10%	-1%	-15%
Cc1ccc(S(=O)(=O)N(C)CCCC(=O)Nc2ccc(F)cc2)cc1	0%	0%	-21%

High-throughput results deposited in PubChem BioAssay by National Center for Advancing Translational Sciences (NCATS).
